High-throughput results (PubChem BioAssay)
Calb biofilm kill: mixture kills Candida albicans biofilm cells; C. albicans biofilm persisters + clotrimazole, fluorescence viability; primary screen in compound mixtures of four per well; 0.02% of 120,000 active; AID 1242; inhibition, % at 7.6 µM;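 active = inhibition above 30.3% in the primary screen of four-compound pools, then above 30% when the compound was retested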;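 note: compounds exposed to preformed 24 h biofilms for 48 h; the number belongs to the whole pool; some results filed as inactive read as strong as hits; inactives centre near 12; 0% = biofilm with clotrimazole alone and 100% = kill control; retested singly at about 60 µM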
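Test system: C. albicans CAF4-2 wild-type biofilms; buffer or medium: RPMI/MOPS medium, pH 7.0; schedule: 24 h biofilm formation, then 48 h compound exposure, 37 °C; detection: Alamar Blue fluorescence; measure: percent inhibition of biofilm viability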
Starred values were filed as active, the others as inactive. The list is partial, so the mix of outcomes need not match the whole.

SMILES	Calb biofilm kill
NC(=S)Nc1cccc(-c2n[nH]c(=S)o2)c1	21
O=C(Nc1cccc(S(=O)(=O)NC2=NCCC2)c1)C1CCCCC1	18
Cc1ccc(NC(=O)OCc2ccccc2S(C)=O)cc1 (stereo not drawn)	29
CC1(C)CC(=O)C2=C(C1)OC(N)=C(C#N)C2c1ccoc1 (stereo not drawn)	14
CC(=O)c1ccc(NC(=O)COC(=O)CCN2C(=O)c3cccc([N+](=O)[O-])c3C2=O)cc1	3
CCOC(=O)N1CCC(N2CCN(S(=O)(=O)c3ccc(OC)cc3)CC2)CC1	9
Cc1ccc(Cl)cc1N1CCN(C(=O)Cc2c(C(=O)O)[nH]c3ccc(Cl)cc23)CC1	14
CCn1c(=S)[nH]c2sc3c(c2c1=O)CCCCC3	-2
COC(=O)c1cccc(NC(=O)NC(=O)c2ccc(Cl)cc2)c1	11
CCC(CC)C(=O)Nc1cccc(C(=O)Nc2nnc(C)s2)c1	13
CCn1c(SCC(=O)N(C)c2c(N)n(Cc3ccccc3)c(=O)[nH]c2=O)nc2ccccc21	2
Cc1cc(C)cc(NC(=O)c2oc3ccccc3c2COc2ccccc2)c1	13
O=C(NNC(=O)C1CC2CCC1C2)c1ccccc1 (stereo not drawn)	7
O=C(CCN1C(=O)C2C3C=CC(C3)C2C1=O)N1CCN(c2ccccn2)CC1 (stereo not drawn)	20
C/C(=N/NC(=S)Nc1cccc(C)c1)c1cccc([N+](=O)[O-])c1	10
COc1cc(-c2ccccc2)nc2ccccc12	21
O=C(N/N=C/c1cccc([N+](=O)[O-])c1)c1nc2ccccc2c(=O)[nH]1	13
COc1ccc(Cc2nnc(SCC(=O)NC3CCCC3)o2)cc1	-7
Cc1cc(S(=O)(=O)N2CCCOC2CNC(=O)C(=O)NCc2ccco2)ccc1F (stereo not drawn)	11
CC1CC(C)CN(C(=O)Nc2ccccc2F)C1 (stereo not drawn)	12
Cc1ccn(CC(=O)N2CCCC(C(=O)c3cccc4ccccc34)C2)n1 (stereo not drawn)	2
COc1ccccc1NC(=S)N/N=C/c1ccc(O)cc1	20
Cc1cc(CNC(=O)COc2c(F)c(F)cc(F)c2F)c2ccccc2n1	13
CCc1cc2ccc(OC)cc2nc1SCC(=O)N1CCN(C(=O)c2ccco2)CC1	8
N#C/C(=C\C1=C(N2CCOCC2)C(=C/c2cccc([N+](=O)[O-])c2)/CC1)C(=O)Nc1ccccc1F	13

Next part, starting with the last 4 of the part before.
SMILES	Calb biofilm kill
COc1ccccc1NC(=S)N/N=C/c1ccc(O)cc1	20
Cc1cc(CNC(=O)COc2c(F)c(F)cc(F)c2F)c2ccccc2n1	13
CCc1cc2ccc(OC)cc2nc1SCC(=O)N1CCN(C(=O)c2ccco2)CC1	8
N#C/C(=C\C1=C(N2CCOCC2)C(=C/c2cccc([N+](=O)[O-])c2)/CC1)C(=O)Nc1ccccc1F	13
COc1cccc(N2CC(=O)N(NC(=O)c3sc4nc(C)cc(C)c4c3N)CC2=O)c1	11
O=C(/C=C/c1ccnc2ccccc12)c1cccs1	5
Cc1cc(N)c(C)c([N+](=O)[O-])c1C	12
CCn1c(SCC(=O)NCCc2ccccc2)nc2sc3c(c2c1=O)CCN(C)C3	5
Cc1ccc(-c2cc(C(=O)O)n[nH]2)s1	16
CCOc1ccc(N2C(=O)/C(=C/c3ccccc3OCC(=O)OC)N(CC(=O)OC)C2=S)cc1	2
Cn1nc(-c2ccc(Cl)cc2)cc1NC(=O)CCCC(=O)O	21
COC(=O)c1sccc1NC(=O)Nc1ccccc1F	7
O=C(CCc1ccccc1)N1CCN(c2ccccn2)CC1	12
CCOCCCNc1nc(C)nc2c1nnn2Cc1c(F)cccc1Cl	9
O=C(COC(=O)CNC(=O)c1ccccc1)NCCc1ccccc1	7
Cc1ccc2c(Cl)cc(Cl)c(OCC(=O)Nc3cccc(S(N)(=O)=O)c3)c2n1	16
O=c1[nH]c(SCc2ccc(Cl)cc2)nc2[nH]ncc12	7
Cc1nc2c3ccccc3nc(NNC(=O)CCC(=O)NC3CCCC3)n2n1	12
CC(=O)c1ccc(OCC(=O)Nc2ccc3c(c2)CCC3)cc1	13
O=C(Nc1cccc(S(=O)(=O)N2CCCC2)c1)C1CCCN1C(=O)c1cccs1 (stereo not drawn)	16
Cc1ccc2cc(CN(CCN(C)C)C(=O)Nc3ccc(Cl)cc3)c(=O)[nH]c2c1	-4
COc1ccc(OC)c(CCNC(=O)C(=O)Nc2ccc3nc4n(c(=O)c3c2)CCCCC4)c1	19
O=C(Nc1nccs1)c1cccc(NC(=O)c2ccco2)c1	15
C/C(=N\OCc1ccccc1)c1c(O)cc(C(C)C)n(-c2ccccc2)c1=O	0
COCCNC(=S)NN=C1CCCCC1	4
Cc1cc(C(=O)NNC(=O)c2cccc(C(F)(F)F)c2)no1	16
Cc1c2c(nc3nnnn13)CCCC2	3
Cc1cccc(C(=O)Nc2ccc3c(c2)C(=O)N(CC(C)C)C3=O)c1	9
O=C(NC(NCc1cccnc1)C(Cl)(Cl)Cl)c1cccc2ccccc12 (stereo not drawn)	10
Other records follow:
SMILES	Calb biofilm kill
O=C(CSc1nncs1)Nc1ccc(S(=O)(=O)N2CCCC2)cc1	16
CCOc1ccc(S(=O)(=O)Nc2cccc(C)c2)c2cccnc12	5
CCCNc1cc(=S)nc(N)[nH]1	15
O=C(COC(=O)c1ccccn1)Nc1nc(-c2cccc([N+](=O)[O-])c2)cs1	26
CCOC(=O)c1c(NC(=O)/C=C/C(=O)O)sc(C)c1-c1ccc(F)cc1	-9
N#CC1CCN(c2ncccc2[N+](=O)[O-])CC1	11
O=S(=O)(N/N=C1/CCCc2ccccc21)c1ccc(Br)cc1	8
CCOC(=O)C(=Nc1ccc(Cl)cc1)NO	3
Cc1nn(-c2ccccc2)c(C)c1/C=C/C(=O)OCC(=O)N(C)C1CCS(=O)(=O)C1 (stereo not drawn)	-31
O=C(NNC(=S)Nc1ccccc1Cl)c1ccncc1	11
Cc1ncc(CCl)c2c1OC(C)(C)OC2	14
Cc1ccc2nc(NC(=O)CS(=O)(=O)Cc3ccccc3)sc2c1	15
CCOC(=O)c1cc([N+](=O)[O-])sc1N	10
CC(C)NC(=S)N/N=C/c1ccc(N2CCOCC2)cc1	23
CCCNC(=O)NCCC12CC3CC(CC(C3)C1)C2	15
O=C1CC(c2ccccc2)CN1C(=O)c1cncc(Br)c1 (stereo not drawn)	29
COC(=O)c1nnn(CC(=O)NC(=O)Nc2c(C)cccc2C)c1C(=O)OC	11
O=C1c2c(O)cc(O)cc2O[C@@]12c1c(cc(O)c3c1O[C@H](c1ccc(O)cc1)[C@@H](O)C3)O[C@@H]2c1ccc(O)cc1	8
O=C(Nc1ccc2c(c1)CCC2)c1cc(=O)[nH]c2ccccc12	17
CCCOc1ccc(-c2c(C(=O)N/N=C/c3ccc(OCC)cc3)nnn2-c2nonc2N)cc1	3
O=C(O)COc1ccccc1/C=N/NC(=O)c1cc2ccccc2cc1O	5
CN(CC(=O)Nc1cccc(F)c1)CC(=O)Nc1cccc([N+](=O)[O-])c1	17
Cc1ccc2nc(SCc3cn4cccnc4n3)[nH]c2c1	12
CCNC(=S)NNC(=O)c1nn(C)c(C)c1Cl	8
Cc1ccc(SCCC(=O)Nc2ccccc2Br)cc1	24

Continued, starting with the last 3 of the part before.
SMILES	Calb biofilm kill
Cc1ccc2nc(SCc3cn4cccnc4n3)[nH]c2c1	12
CCNC(=S)NNC(=O)c1nn(C)c(C)c1Cl	8
Cc1ccc(SCCC(=O)Nc2ccccc2Br)cc1	24
COc1cc(CCCN2C(=S)NC[C@@H]2CC2CCCCC2)cc(OC)c1OC	16
CC(=O)OC[C@H]1O[C@@H](O/N=C/C[C@@H]2C=C[C@H](OC(C)=O)[C@@H](COC(C)=O)O2)[C@H](OC(C)=O)[C@@H](OC(C)=O)[C@@H]1OC(C)=O	5
O=C(Nc1ccc(O)cc1)c1ccc2c(c1)C(=O)N(Cc1ccco1)C2=O	12
O=C(COC(=O)C1=COCCO1)Nc1ccccc1OC(F)F	8
COCCNc1ccc(S(=O)(=O)N2CCCC2)cc1[N+](=O)[O-]	6
CC(C)(C)[C@@H]1C=C(C(=O)N2CCN(Cc3ccccc3)CC2)O[C@H](OCCCCO)C1	18
N#Cc1c(-c2c(Cl)cccc2Cl)noc1/C=C/Nc1ccc(C(=O)O)cc1	16
CCCCn1c(=O)c(CCC(=O)OCC(=O)Nc2ccc(C)c(Cl)c2)nc2ccccc21	16
O=C(O)CCCC(=O)Nc1cc([N+](=O)[O-])ccc1O	20
Cc1ccc(C(=O)N/N=C/c2ccc3c(c2)OCO3)o1	13
CCc1cccc(NC(=O)CCC(=O)O)c1	18
COc1cccc(/C=N/NC(=O)c2ccc(=O)[nH]n2)c1O	16
Cc1onc(-c2ccc(Cl)cc2)c1-c1ccnn1S(=O)(=O)c1ccc(Cl)cc1	8
CCCC(c1nnnn1CS(=O)(=O)c1ccc(C)cc1)N1CCN(CC)CC1 (stereo not drawn)	18
Cc1nc2nc(SCC(=O)c3cccc([N+](=O)[O-])c3)[nH]c2cc1Br	15
N/C(=N\OC(=O)CCc1ccccc1)c1ccccc1Cl	12
CCOP(=O)(OCC)C(Nc1cccc(C)c1)c1ccc(F)cc1 (stereo not drawn)	8
S=c1[nH]nc(-c2ccccn2)n1/N=C/c1ccco1	9
COc1ccc(-c2n[nH]c(=S)n2N)c(OC)c1	-1
Cc1ccc(C)c(N2CCN(C(c3ccc(N(C)C)cc3)c3nnnn3C(C)(C)C)CC2)c1 (stereo not drawn)	4
COC(=O)N/N=C/c1ccc(OC(=O)/C=C/c2ccco2)cc1	7
O=C(O)c1cccc(-n2cccc2/C=C/[N+](=O)[O-])c1	25
CSc1ccc(C(=O)C2CCCN(C(=O)Cc3nonc3C)C2)cc1 (stereo not drawn)	3
COc1ccc(CC(=O)NCc2n[nH]c(=S)n2-c2ccccc2OC)cc1	2
CC1(C)Cc2c(sc3nnn(Cc4ccccc4)c(=O)c23)CO1	-10

The closing five entries of the part before lead into the next:
SMILES	Calb biofilm kill
COC(=O)N/N=C/c1ccc(OC(=O)/C=C/c2ccco2)cc1	7
O=C(O)c1cccc(-n2cccc2/C=C/[N+](=O)[O-])c1	25
CSc1ccc(C(=O)C2CCCN(C(=O)Cc3nonc3C)C2)cc1 (stereo not drawn)	3
COc1ccc(CC(=O)NCc2n[nH]c(=S)n2-c2ccccc2OC)cc1	2
CC1(C)Cc2c(sc3nnn(Cc4ccccc4)c(=O)c23)CO1	-10
Cc1cccc(NNC(N)=S)c1C	14
CC(C)(C)C(=O)Nc1cccc(-c2ncon2)c1	15
Cc1ccc(-n2nc(C)c(C(C)(O)C(F)(F)F)c2N)cc1 (stereo not drawn)	4
CCN(CC)C(=O)Cc1ccccc1	-2
CCc1ccc(NC(=O)CC2C(=O)N(c3ccc(C)cc3)C(=O)N2C2CC2)cc1 (stereo not drawn)	2
O=C(CCN1C(=O)CSC1=O)Nc1ccc(Br)cc1	14
COC(=O)c1c(NC(=O)CC2SC(N)=NC2=O)sc2c1CCC(C)C2 (stereo not drawn)	15
CCOC(=O)C1CCN(C(=O)/C=C/c2cc(OC)c(OC)c(OC)c2)CC1	16
O=[N+]([O-])c1ccc(N2CCN(C(=S)Nc3cccc(F)c3)CC2)cc1	3
O=C(CCn1c2c(c3ccccc31)CCCC2)NNC(=O)c1ccc(Cl)c([N+](=O)[O-])c1	10
CCC(=O)Nc1sc(Cc2ccccc2)c(C)c1C(N)=O	9
CN1CCN(CCC(=O)N/N=C/c2cc([N+](=O)[O-])ccc2OC(F)F)CC1	19
Cc1nnc(SCc2cc(=O)[nH]c(Nc3nc(C)c4cc(C)c(C)cc4n3)n2)s1	16
CC(C)NC(=O)c1ccc2c3n(nc2c1)-c1ccc(Cl)cc1CO3	18
COc1ccc(NC(=S)N/N=C/c2ccc(F)cc2)cc1OC	10
CSc1cnc2c(=O)[nH]c(=O)n(C)c2n1	14
CNS(=O)(=O)c1cccc(C(=O)OCC(=O)c2cc3ccccc3o2)c1	9
COc1c(N2CCN(C(=S)Nc3ccccc3F)C(C)C2)c(F)cc2c(=O)c(C(=O)O)cn(C3CC3)c12 (stereo not drawn)	13
N#CCCN(Cc1cccnc1)C(=S)NCc1ccco1	13
N#CC(C#N)=Cc1cc2ccccc2nc1N1CCOCC1	1
Cc1ccc(NC(=O)C/C(N)=N/O)cc1Cl	15
COc1cc2c(cc1OC)CN(C(=O)c1ccc([N+](=O)[O-])o1)CC2	16
CCOC(=O)/C(C)=N/Nc1nc(-c2ccc(NC(C)=O)cc2)cs1	16
Cc1cccc(CN(C(=S)Nc2c(C)cccc2C)c2cccnc2)c1	10
CS(=O)(=O)N1CCN(c2ccc(NC(=O)COc3ccccc3)cc2)CC1	7

Structures listed so far that contain a CF3 group (2):
SMILES	Calb biofilm kill
Cc1cc(C(=O)NNC(=O)c2cccc(C(F)(F)F)c2)no1	16
Cc1ccc(-n2nc(C)c(C(C)(O)C(F)(F)F)c2N)cc1 (stereo not drawn)	4

(next part)
SMILES	Calb biofilm kill
C=CCSc1nc2ccccc2c(=O)n1Cc1ccccc1	6
CC(C)CNC(=O)c1cccc(NC(=O)Cc2ccc(Br)cc2)c1	9
O=C(O)CCn1cc(/C=N/O)c(-c2cccc([N+](=O)[O-])c2)n1	9
Cc1cc2c(C)nc(N/N=C/c3ccc(F)cc3)nc2o1	22
COC(=O)N/N=C/c1ccccc1OCc1ccccc1	3
O=C(Oc1cc(=O)n2ccccc2n1)c1ccccc1	14
CC(C)(C)NC(=O)/C(=C\c1ccco1)NC(=O)c1cccs1	18
O=C(NC1CCCC1)C(c1cccnc1)N(CCc1ccccc1)C(=O)c1ccco1 (stereo not drawn)	18
CCOc1ccc(NS(=O)(=O)c2cc(NC(=O)c3cccc(C)c3)ccc2Cl)cc1	19
O=C(CNc1cccc(C(F)(F)F)c1)N/N=C/c1cn(-c2ccccc2)nc1-c1ccccc1	10
Clc1ccccc1Cc1noc(CN2CCN3CCCC3C2)n1 (stereo not drawn)	15
